D2 agonist: human D2 receptor agonism in beta-arrestin assay; activation, % (test concentration not listed); actives 0.084% (n = 360,000); DiscoveRx PathHunter D2 beta-arrestin, luminescence, 90 min; 100% = 57 uM dopamine signal; P14416; in the data active = activation above about 40%; inconclusive = about 15% to 40%; inactive = below about 15%; further: compound concentration not given in the record; the text of the record calls up to 30% inactive
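Agonist mode: compounds alone added to overnight-plated D2 PathHunter cells for 90 min at 37 C, with 57 uM final dopamine (EC100) defining full response. Beta-arrestin recruitment detected by chemiluminescent reagent, read after 1 h at ambient temperature.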
CtBP-E1A blk: blocks the CtBP interaction with E1A. activity change, % (test concentration not listed). AlphaScreen GST-E1A/His-CtBP binding, 1536-well; stronger effect = lower value; control for the full effect not named in the record. AID 651724. actives 0.49% (n = 340,000); in the data active means activity change below about -65%; inconclusive means about -30% to -65%; inactive means above about -30%; further: on the % scale 0 is the no-effect control and ±100 the full control effect; compound concentration not given in the record
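AlphaScreen with 125 nM GST-E1A and 125 nM His-CtBP (5X stocks) in Tris pH 8.0, 300 mM NaCl, BSA, Tween 20, TCEP. Compounds preincubated 2 h at 37 deg C, then glutathione donor/nickel acceptor beads added for 1 h at 37 deg C in dark.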
Six1-Eya2 blk: inhibitors of human Six1/Eya2 interaction; actives 0.56% (n = 360,000); activity change, % (concentration not given with the values); Q15475+O00167; AlphaScreen GST-Six1/His-Eya2 binding, biochemical; stronger effect = lower value; control for the full effect not named in the record; in the data active = activity change below about -65%; inconclusive = about -30% to -65%; inactive = above about -30%; further: on the % scale 0 is the no-effect control and ±100 the full control effect
Target sequence (O00167 whole entry, looked up): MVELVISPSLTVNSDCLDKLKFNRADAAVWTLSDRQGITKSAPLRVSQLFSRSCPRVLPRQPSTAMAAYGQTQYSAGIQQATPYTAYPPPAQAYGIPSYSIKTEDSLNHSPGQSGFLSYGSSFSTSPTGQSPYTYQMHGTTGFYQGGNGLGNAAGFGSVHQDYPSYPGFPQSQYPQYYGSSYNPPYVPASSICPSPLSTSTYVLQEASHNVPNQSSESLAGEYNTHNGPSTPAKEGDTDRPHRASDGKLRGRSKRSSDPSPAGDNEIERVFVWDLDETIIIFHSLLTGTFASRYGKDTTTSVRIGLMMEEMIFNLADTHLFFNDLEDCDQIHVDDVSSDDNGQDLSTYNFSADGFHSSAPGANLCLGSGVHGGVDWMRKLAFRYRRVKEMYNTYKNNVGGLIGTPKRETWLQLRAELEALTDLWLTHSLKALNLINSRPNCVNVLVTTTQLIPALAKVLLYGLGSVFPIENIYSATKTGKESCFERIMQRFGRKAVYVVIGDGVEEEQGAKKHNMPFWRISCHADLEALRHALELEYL
Target sequence (Q15475 whole entry, looked up): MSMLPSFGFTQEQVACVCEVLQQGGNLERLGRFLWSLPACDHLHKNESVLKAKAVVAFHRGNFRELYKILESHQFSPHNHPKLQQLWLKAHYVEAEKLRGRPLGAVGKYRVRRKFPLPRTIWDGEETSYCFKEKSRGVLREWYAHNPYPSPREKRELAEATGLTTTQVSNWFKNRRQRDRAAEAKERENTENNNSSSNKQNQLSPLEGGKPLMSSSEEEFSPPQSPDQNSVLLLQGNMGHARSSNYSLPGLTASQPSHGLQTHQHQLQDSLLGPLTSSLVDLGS
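Compounds are tested against tagged Six1 and Eya2 proteins bridged by glutathione donor and nickel acceptor beads; after a one-hour incubation at 37 °C without light, AlphaScreen emission is recorded.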
PINK1 expr mod: modulators of PINK1 expression; PINK1 immunofluorescence, high-content cytometry, 24 h; Potency, µM (titrated, usually from 76.6 µM), for the others: top-dose activation (PINK1 increase), actives largely listed as activators; actives 0.2% (n = 410,000); active = well fitted activation curve with a large enough effect; inconclusive = small, poorly fitted or top-dose-only effect; inactive = flat fitted curve, though single readings scatter; cell line not stated here;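 further: potency means the concentration at half of the fitted maximal effect; % of control where 0% means no effect; nearly all actives have a fitted effect of over 65% in size; a mitochondrial uncoupler was the plate control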
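A stable cell line was treated with compounds at 5 concentrations for 24 hours, with CCCP as control. PINK1 levels and mitochondrial localization were measured by immunofluorescence with mitochondrial, cell and nuclear markers after fixation, read by laser-scanning cytometry.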
TRPML1 ag: human mucolipin-1 channel agonism; Q9GZU1; TRPML1-expressing cells, Ca2+ dye fluorescence, FDSS; host cell line not named in the record; reference of the full effect not given here; activation, % (test concentration not listed); actives 0.12% (n = 410,000); AID 624414; in the data active = activation above about 50%; inconclusive = about 30% to 50%; inactive = below about 30%; further: 0% is about no effect; the text of the record puts the active cut at 80%
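Tet-induced TRPML1-DL cells, 1,500 per well, cultured overnight, were loaded with a no-wash Ca2+ dye for 45–90 min. Calcium fluorescence was recorded on the FDSS for 110 s after compound addition, before the EC80 agonist (4 uM 54-4) was added.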
D2 PAM: positive allosteric modulators of human D2 dopamine receptor; P14416; DiscoveRx D2 beta-arrestin cells, luminescence, 90 min; 100% = 57 uM dopamine signal; potentiation, % (no concentration beside the values); actives 0.23% (n = 360,000); AID 624464; active = potentiation of 50% or more; inconclusive = 30% to 50%; inactive = 30% or less;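 further: compound concentration not given in the record; tested on top of an EC20 dose of dopamine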
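D2 cells co-treated with compound plus 50 nM dopamine (EC20) for 90 min at 37 deg C to detect potentiation. Beta-arrestin recruitment was read as enzyme-fragment luminescence after 1 h at ambient temperature. Full response was set by 57 uM dopamine.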
Active calls of the source: *; ? = inconclusive; nt = not tested or not shown; & = joins results of further samples.

Compound	D2 agonist	CtBP-E1A blk	Six1-Eya2 blk	PINK1 expr mod	TRPML1 ag	D2 PAM
O=C(COC(=O)c1ccc(O)cc1O)Nc1ccc2ccccc2c1	-1.3	nt	-8	1.8%	-1.4	-6
CCC(=O)Nc1cccc(C(=O)c2ccccc2)c1	1.3	0	-5	nt	0.2	4
CCN(C(=O)COC(=O)CNC(=O)c1cccs1)c1c(N)n(Cc2ccccc2)c(=O)[nH]c1=O	-2.3	-14	3	0.6%	1.5	-3
Cc1oc(-c2ccccc2Cl)nc1CN(C)C(C)c1ccon1 (stereo not given)	-2.9	2	-8	0.1%	-0.6	-5
O=C(CSc1nc(-c2ccco2)cc(C(F)(F)F)n1)NC1CCCC1	-1.3	8	2	-1.1%	1.6	-7
COc1ccccc1OCCCOc1cccc(/C=C2\SC(=O)NC2=O)c1	0.8	-11	0	3.7%	1.9	-2
CCC(C)NC(=O)CN(C)S(=O)(=O)c1ccc2c(c1)c(=O)n(C)c(=O)n2C (stereo not given)	-5.1	-4	-13	0.3%	-1.0	-5
Cc1cccc2nc(Cn3c(=O)n(CCC(=O)NCc4ccco4)c(=O)c4ccccc43)cc(=O)n12	-1.5	nt	2	0.0%	-0.6	-11
CC1C(=O)N(Cc2ccccc2F)c2ccccc2N1C(=O)c1c(F)cccc1F (stereo not given)	9.6	1	8	-0.9%	1.7	17
CC(NC(=O)CCSCCC(=O)NC(C)c1ccccc1)c1ccccc1 (stereo not given)	-0.6	10	4	-0.4%	1.9	-2
CC(=O)NC(c1cccs1)c1cc([N+](=O)[O-])c2cccnc2c1O (stereo not given)	1.1	-87*	-89*	19%	0.2	-22
C[C@@H]1CN([C@@H](C)CO)C(=O)c2cc(NS(=O)(=O)c3ccc(F)cc3)ccc2O[C@@H](C)CCCCO[C@H]1CN(C)C(=O)NC1CCCCC1	-1.6	-3	3	5.5%	-0.7	-14

4 compounds from above, sorted by the number in CtBP-E1A blk, lowest first.
smiles | D2 agonist | CtBP-E1A blk | Six1-Eya2 blk | PINK1 expr mod | D2 PAM
CCN(C(=O)COC(=O)CNC(=O)c1cccs1)c1c(N)n(Cc2ccccc2)c(=O)[nH]c1=O | -2.3 | -14 | 3 | 0.6% | -3
CCC(C)NC(=O)CN(C)S(=O)(=O)c1ccc2c(c1)c(=O)n(C)c(=O)n2C (stereo not given) | -5.1 | -4 | -13 | 0.3% | -5
CC1C(=O)N(Cc2ccccc2F)c2ccccc2N1C(=O)c1c(F)cccc1F (stereo not given) | 9.6 | 1 | 8 | -0.9% | 17
CC(NC(=O)CCSCCC(=O)NC(C)c1ccccc1)c1ccccc1 (stereo not given) | -0.6 | 10 | 4 | -0.4% | -2

Among those listed so far, these have four or more nitrogen atoms.
Compound	D2 agonist	CtBP-E1A blk	Six1-Eya2 blk	PINK1 expr mod	TRPML1 ag	D2 PAM
CCN(C(=O)COC(=O)CNC(=O)c1cccs1)c1c(N)n(Cc2ccccc2)c(=O)[nH]c1=O	-2.3	-14	3	0.6%	1.5	-3
CCC(C)NC(=O)CN(C)S(=O)(=O)c1ccc2c(c1)c(=O)n(C)c(=O)n2C (stereo not given)	-5.1	-4	-13	0.3%	-1.0	-5
Cc1cccc2nc(Cn3c(=O)n(CCC(=O)NCc4ccco4)c(=O)c4ccccc43)cc(=O)n12	-1.5	nt	2	0.0%	-0.6	-11
C[C@@H]1CN([C@@H](C)CO)C(=O)c2cc(NS(=O)(=O)c3ccc(F)cc3)ccc2O[C@@H](C)CCCCO[C@H]1CN(C)C(=O)NC1CCCCC1	-1.6	-3	3	5.5%	-0.7	-14

Next compounds follow.
Compound	D2 agonist	CtBP-E1A blk	Six1-Eya2 blk	PINK1 expr mod	TRPML1 ag	D2 PAM
COc1ccc(-n2cc(-c3ccccc3)c3c(=O)[nH]cnc32)cc1	-7.9	0	27	-2.9%	1.8	-10
O=C(COc1ccccc1)Nc1ccc2c(c1)nc1n2CCSC1	-1.8	-3	-2	1.6%	-0.8	-9
COc1cccc(-c2cnc(C(O)c3ccc(C)c(F)c3)[nH]2)c1 (stereo not given)	-0.8	-16	-16	-0.6%	-1.4	-11
CC(=O)c1cccc(Nc2nc(-c3sc(C)nc3C)cs2)c1	6.1	?	?	5.8%	2.5	-10
O=C(NNC(=S)NCCc1ccccc1)c1ccc(Br)s1	1.1	-1	0	21%	1.3	-11
S=C(SSC(=S)N1CCOCC1)N1CCOCC1	-8.6	-3	-9	-0.2%	-0.4	-14
COc1ccc(/C=C(/NC(=O)c2ccc([N+](=O)[O-])cc2)C(=O)NC(C)(C)C)cc1	2.6	-5	9	-1.5%	-0.4	-15
O=C(NCCC1=CCCCC1)NC1CCCCC1	0.3	14	5	-2.4%	-0.2	-25
Cc1nnc(-c2ccccc2)o1	-3.8	0	3	2.4%	nt	-4
O=C(CSc1nc(-c2cccs2)nc2ccccc12)NC1CCS(=O)(=O)C1 (stereo not given)	-1.2	6	1	4.6%	3.2	-1
CCOC(=O)c1ccc(-c2ccc3[nH]c4ccccc4c(=O)c3c2)cc1F	-2.3	7	9	-0.4%	0.0	-1
Cc1ccc(NC(=O)CSC2=NCCN2)cc1	-4.3	-3	-1	5.1%	0.4	-29
Cc1nc2ccccn2c1-c1ccnn1S(=O)(=O)c1ccc(F)cc1	-0.7	nt	-5	2.7%	0.9	-23
Cc1ccc(S(=O)(=O)NCc2ccncc2)cc1	1.5	9	-1	1.0%	-0.1	11
NNC(=O)CC1NCCN(Cc2ccccc2)C1=O (stereo not given)	-2.5	-8	-14	-0.2%	-0.8	-2
Cc1nc(-c2ccc(NS(C)(=O)=O)cc2)cs1	-0.1	-3	6	0.2%	-0.8	-1
Cc1ccc(NC(=O)c2cc(N3C(=O)C4CC=CCC4C3=O)ccc2N2CCCCC2)cc1 (stereo not given)	-1.1	4	3	-0.8%	-0.1	-3
COc1ccc(Cl)cc1S(=O)(=O)NCc1nc2nc(C)cc(C)n2n1	-2.8	-1	5	1.9%	0.2	-7
NC(=O)CC(NC(=O)c1ccccc1)c1ccc(NCCc2ccc(F)cc2)c([N+](=O)[O-])c1 (stereo not given)	-4.1	-2	-4	15%	-0.8	-6
CC1(C)CC(=O)c2c(noc2-c2ccccc2)C1	-3.5	-7	18	-1.5%	-0.8	0
O=C(CNC(=O)c1n[nH]c2ccccc12)Nc1cc(Cl)ccc1Cl	-1.1	0	10	12%	0.3	-12
Cc1cc(C)cc(NC(=O)CN2CCN(C(=O)C3CCCO3)CC2)c1 (stereo not given)	1.0	6	-1	0.5%	-0.8	-5
CC(C)(C)C(CCl)C(=O)NN=C(c1ccccc1)c1ccccc1 (stereo not given)	-6.9	5	10	2.1%	0.6	-14
Cc1cccc(N2CCN(Cc3oc(CO)cc(=O)c3O)CC2)c1C	-1.4	9	-6	-1.5%	-0.6	-24
CCOc1ccccc1N(C(=O)CNC(=O)c1ccco1)C(C(=O)NC(C)(C)C)c1ccncc1 (stereo not given)	-0.4	6	-2	2.3%	-0.5	6
CCOc1ccccc1Nc1nnc(SCC(=O)N2CCCC2)s1	-3.0	2	2	-1.9%	0.0	0
COc1ccc2c(c1)C(CC(C)=O)N(c1ccc(-c3cccnc3)cc1)C(c1ccsc1)=C2 (stereo not given)	nt	13	-5	0.1%	-0.6	nt
c1ccc(N2CCOCCOCCOCCOCC2)cc1	-2.1	-1	-3	3.1%	0.1	-12
CC1Nc2ccc(C(=O)NC3CCCCC3)cc2NC1=O (stereo not given)	-2.5	-7	0	0.9%	0.6	-7
NC(=O)CC(NC(=O)Cc1cccc2ccccc12)c1ccc(NC2CCCCCCC2)c([N+](=O)[O-])c1 (stereo not given)	-4.5	-11	-7	-0.4%	0.0	-10
CCCCN(C)CCCNC(=O)CN1N=C(c2ccc(Cl)cc2)CCC1=O	-1.8	10	-1	-0.5%	-0.9	-12
CCOC(=O)CC1(C)c2nc(NC(C)=O)sc2Cc2sc(NC(C)=O)nc21	-5.1	1	14	0.3%	-0.2	-7
O=C(Cc1ccc(F)cc1)OCC(=O)N1CCN(S(=O)(=O)c2ccc(Cl)cc2)CC1	-3.2	-17	10	1.2%	1.3	-8
Cc1ccc(S(=O)(=O)NNC(=O)c2csnn2)cc1	-1.0	12	6	0.8%	0.5	-7
O=C1/C(=C\c2ccc(Br)o2)SC(=Nc2ccccc2)N1c1ccccc1	-3.6	?	?	-1.0%	-0.1	-6
CN(C)CCn1c(COc2ccccc2)nc2ccccc21	-2.4	0	-2	-0.1%	4.0	-21
O=C(Nc1csc([N+](=O)[O-])c1)Nc1c(Cl)cccc1Cl	-4.1	nt	-2	1.8%	0.5	-25
Cn1c(=O)c2c(nc(N3CCCCC3)n2CCCNC2=NCCCC2)n(C)c1=O	-5.6	7	-2	-3.6%	-0.4	-16
Cn1c(CSCc2ccccc2Cl)n[nH]c1=S	6.3	nt	3	1.0%	0.0	-8
CCOC(=O)CN1C(=O)C(O)=C(C(C)=O)C1c1ccc(F)cc1 (stereo not given)	0.2	-6	7	-1.1%	0.6	0
O=C(N[C@@H]1CCC(=O)N(CC[C@H](Sc2ccc(Br)cc2)c2ccccc2)CC1)OCc1ccccc1	-3.5	-1	-14	2.8%	-0.2&0.1	-9
CCOC(=O)c1cc2c(ccn2C)n1CC(=O)N(C)C	-1.9	3	-3	0.1%	-0.7	-4
O=C(/C=C/c1ccc([N+](=O)[O-])cc1)Nc1ncc([N+](=O)[O-])s1	2.8	nt	-1	?	-0.3	-17
C=C(C)Cn1c(Sc2nnc(C)s2)nc2c1c(=O)[nH]c(=O)n2C	-3.5	2	0	-4.0%	-0.9	4
CCCn1c(SCC(=O)Nc2cccc(S(=O)(=O)N(C)C)c2)nc2ccccc2c1=O	-2.9	-16	-8	0.6%	2.5	-3
CCC(C)SCc1nc2ccccc2[nH]1 (stereo not given)	-3.8	2	-1	3.0%	-1.0	-18
